Source: PubChem BioAssay (National Center for Advancing Translational Sciences (NCATS))
Rango release inh: inhibition of RanGTP-driven Rango-importin beta dissociation. O95149+P62826. Biochemical FRET Rango-importin beta, RanGTP-induced dissociation. Potency, µM (highest dose often 46.1 µM), without a hit: top-dose activity change, negative = inhibition. 340,000 compounds, 0.071% hits. AID 540253; active means falling FRET ratio curve, often poorly fitted, with flat reads before Ran was added; inconclusive means other falling curves, or compound fluorescence or quenching; inactive means flat or rising ratio curve;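 also: potency is read from the fitted curve at half-maximal effect; % of control where 0% means no effect; nearly all actives have a fitted effect of over 45% in size; -100% = wells without RanGTP and RCC1; the record marks most hits as doubtful in a second field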
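Rango/importin beta premix (0.1/0.25 uM final), PBS + 1 mM DTT + 0.02% Tween-20 + 0.1% BSA; cpd 5 min RT; FRET pre-read; + RanGTP-RCC1 (0.6 uM Ran, 2 mM GTP, 0.2 uM RCC1); 45 min RT; FRET post-read, ex 430, em 486/530 nm.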
Rango-impB inh: inhibitors of Rango-importin beta complex formation | Q14974 | Rango CFP/YFP FRET sensor + importin beta, 45 min | Potency, µM (doses to about 92.2 µM), for inactives: at the top dose inhibition of complex formation | 340,000 compounds, 0.031% hits | AID 540263; active = rising FRET ratio curve, often small or poorly fitted; inconclusive = mostly compound fluorescence or quenching in the first reads; inactive = flat curves in all reads;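 also: potency is read from the fitted curve at half-maximal effect; 0% = DMSO wells and 100% = buffer wells lacking importin beta; nearly all actives have a fitted effect of over 15% in size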
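Inhibition scored from the CFP 486 nm/YFP 530 nm FRET ratio 45 min after adding 0.125 microM importin beta to 50 nM Rango biosensor preincubated 5 min with compound (room temperature, PBS with DTT, Tween-20, BSA). No-importin wells as positive control.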
miR-21 FLuc: miR-21 reporter, rising signal; HeLa miR-21 FLuc reporter, luciferase, 48 h; Potency, µM (series often up to 38.3 µM), for the others: at the highest dose reporter change, positive = more light; 340,000 tested, under 10 active; active = well fitted rising curve with a large enough effect; inconclusive = small, poorly fitted or top-dose-only effect; inactive = no such curve, though single readings can be large or run the other way;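 also: % of control where 0% means no effect; miR-21 action dims this reporter so a rising signal means less miR-21 action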
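Using DMEM plus 10% FBS, HeLa miR-21-FLuc cells are incubated with test compounds (final up to about 40uM) for 48 hours; firefly luciferase signal is then imaged following reagent-mediated lysis.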
GLA inh pH 4.5: alpha-galactosidase A (human) inhibition, pH 4.5; purified enzyme, 4-MU-alpha-Gal fluorescence, pH 4.5; AID 1467; P06280; activity change, negative = inhibition, % at 105 µM; 230,000 tested, under 10 active; inconclusive = small, poorly fitted or top-dose-only inhibition, or a rising curve; inactive = flat fitted curve, though single readings scatter; no compound was filed as active;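 also: 0% = full activity with enzyme and -100% = basal without enzyme; dose as in the result columns while the protocol names 77 µM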
Target sequence (P06280 whole entry, looked up): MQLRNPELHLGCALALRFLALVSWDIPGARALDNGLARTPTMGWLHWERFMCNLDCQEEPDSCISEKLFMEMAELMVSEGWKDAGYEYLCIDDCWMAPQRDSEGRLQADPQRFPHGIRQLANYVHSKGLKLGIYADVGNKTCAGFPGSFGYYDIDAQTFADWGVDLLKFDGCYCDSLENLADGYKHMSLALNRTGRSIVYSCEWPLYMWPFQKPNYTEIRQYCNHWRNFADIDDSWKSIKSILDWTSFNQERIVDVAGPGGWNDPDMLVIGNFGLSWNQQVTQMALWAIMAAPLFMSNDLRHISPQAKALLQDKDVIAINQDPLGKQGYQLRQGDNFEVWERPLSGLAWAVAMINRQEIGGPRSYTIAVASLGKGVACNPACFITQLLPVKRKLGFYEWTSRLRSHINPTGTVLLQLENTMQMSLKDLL
The depositor's hits bear a star; ? = inconclusive; . = no result given; & = joins results of further samples.

# | SMILES | Rango release inh | miR-21 FLuc | GLA inh pH 4.5 | Rango-impB inh
1 | Cc1nc2c3ccccc3nc(NNC(=O)CCC(=O)NCCC(C)C)n2n1 | 7.7% | -1.2% | -9.1 | -5.6%
2 | COC(=O)c1nnn(-c2nonc2N)c1COc1ccc(C=O)cc1OC | -11.6% | 10.4% | -0.4 | 2.2%
3 | CC(C)(C)c1ccc(NC(=O)COC(=O)CCc2nc3ccccc3c(=O)[nH]2)cc1 | -1.3% | -9.7% | 1.5 | 4.3%
4 | O=C(/C=C/c1ccc(O)c(O)c1)O[C@@H]1C[C@](O)(C(=O)O)C[C@@H](O)[C@H]1O | ? | . | . | -4.9%&-5.8%
5 | C(=N\N1CCN(C2c3ccccc3-c3ccccc32)CC1)/c1cccnc1 | -4.0% | -9.5% | -2.4 | -1.3%
6 | O=C(Nc1c2c(nn1-c1ccc([N+](=O)[O-])cc1)CS(=O)(=O)C2)c1ccco1 | -1.4% | 0.2% | . | -0.5%
7 | O=C(CN1C(=O)/C(=C/c2ccccc2)SC1=S)N1CCN(CCc2ccccn2)CC1 | 12.4% | -0.6% | . | 1.8%
8 | CC(=O)NC1(C(F)(F)F)C(=O)Nc2c1c(=O)[nH]c(=O)n2CCc1ccccc1 (centres undefined) | 8.9% | 1.3% | -2.4 | 8.3%
9 | Nc1cc(C(F)(F)F)ccc1OCC1CCCO1 (centres undefined) | 0.0% | -40.3% | . | -4.7%
10 | CCOC(=O)c1sc(-c2ccc(C(F)(F)F)cc2)nc1O | ? | -17.0% | 4.4 | ?
11 | COCCCNC(=O)CCc1ccc(S(=O)(=O)Nc2ccc(C)cc2)cc1 | 10.3% | -1.0% | -2.0 | -0.2%
12 | CCOC(=O)c1nn(-c2ccc(Cl)cc2)c(=O)c(C#N)c1C | -2.8% | 1.0% | . | 0.3%
13 | Cc1ccc(Oc2ccc(C=O)cn2)cc1 | 9.9% | -18.7% | 3.4 | 0.8%
14 | CCC1(CC)CNC(=O)NC1 | 42.3% | . | . | -4.0%
15 | CC(C)(C)C1CCc2c(sc(NC(=O)c3ccncc3)c2C(N)=O)C1 (centres undefined) | -9.3% | -27.0% | -8.6 | ?
16 | CCOC(=O)C1=C(N2CCCCC2)c2cc3c(n2C1=O)CCCC3 | -4.4% | -8.5% | -3.8 | 2.5%
17 | Cc1nn(CC2CC2)c(=O)n1-c1ccccc1F | 11.8% | -2.7% | 2.5 | 2.4%
18 | Cc1ccccc1Cn1ccc(-c2ccc(Cl)cc2)c(C#N)c1=O | 9.9% | -9.5% | 12.4 | 0.0%
19 | O=C(NCc1cccnc1)c1cccnc1Sc1ccc(Cl)cc1 | -2.6% | -10.8% | 3.6 | -0.5%
20 | COc1cc(C(=O)NCc2nnc(SCC(=O)N3CCCCC3)o2)cc(OC)c1OC | -7.9% | 0.1% | 7.2 | 0.7%
21 | COCCn1c(=O)[nH]c2cc(C(=O)N3CCN(c4ccccc4F)CC3)ccc2c1=O | 3.0% | 14.0% | . | -1.9%
22 | Cc1ccnc(NC(=O)c2cccc([N+](=O)[O-])c2C)c1 | -1.0% | -22.4% | 0.0 | -1.1%
23 | CCOc1ccc2[nH]c(=O)c(CN(Cc3ccc(C)cc3)C(=O)N3CCCC3)cc2c1 | 2.7% | -3.3% | -14.5 | 2.0%
24 | CCCCCCSc1ccc([C@H]2N[C@@](CC(C)C)(C(=O)OC)[C@H]3C(=O)N(C)C(=O)[C@@H]23)cc1 | 2.0% | . | . | 9.0%
25 | COc1ccc(NC(=O)CCNC(=O)c2ccc([N+](=O)[O-])cc2)cc1S(=O)(=O)N1CCOCC1 | -14.0% | . | . | 0.3%
26 | O=C(O)CCCn1cc(NC(=O)COc2cccc(Cl)c2)cn1 | 0.6% | -3.6% | . | 0.4%
27 | COc1cc(C(=O)NCc2nnc(SCC(=O)NCCc3ccccc3)o2)cc(OC)c1OC | -9.3% | 0.0% | . | 10.1%
28 | O=C(CSCc1cc(=O)n2ccsc2n1)Nc1ccccc1 | 9.0% | -0.2% | . | -4.9%
29 | CC(C)CC(CO)NS(=O)(=O)c1cccc(Cl)c1F (centres undefined) | -0.4% | . | . | 2.3%
30 | CC(C)COC(=O)NC1c2ccccc2Oc2ccccc21 | -10.7% | 6.3% | 2.4 | 0.6%
31 | COc1ccc(NC(=O)/C(C#N)=C\c2ccc(OCc3ccc(C(=O)O)cc3)c(OC)c2)cc1 | 17.1% | -6.1% | 6.3 | 0.0%
32 | COc1ccc(C(CNC(=O)c2ccc(S(=O)(=O)N(C)C)cc2)N(C)C)cc1 (centres undefined) | -13.0% | -8.3% | 9.9 | -0.2%
33 | CC1(C)Cc2c(sc(NC(=O)c3ccco3)c2C#N)C(C)(C)N1 | 15.3% | -7.4% | -10.1 | -0.6%
34 | CCOC(=O)C1CCN(Cc2c(F)cccc2Cl)CC1 | -15.1% | -5.0% | -14.1 | 12.7%
35 | O=C(O)c1c(Cl)cccc1Cl | 2.3% | . | . | -1.0%
36 | COc1ccc(OC)c(C(Nc2ccccc2)P(=O)(OC(C)C)OC(C)C)c1 (centres undefined) | 21.3% | 1.4% | -9.2 | -1.2%
37 | COCCn1c(=O)[nH]c2cc(C(=O)Nc3cc(C)cc(C)c3)ccc2c1=O | -8.3% | 10.9% | . | ?
38 | CC1=C(C#N)C(c2cn(-c3ccccc3)nc2-c2cccs2)C(C#N)=C(C)N1 | -13.2% | 0.5% | -0.5 | ?
39 | CCOc1ccc(CCNC(=O)c2oc3c(c2C)-c2[nH]ncc2CC3)cc1OCC | -16.6% | -11.4% | 4.5 | 0.1%
40 | COc1ccc(C(CNS(=O)(=O)c2ccccc2)N2CCN(C)CC2)cc1 (centres undefined) | -7.9% | . | . | -0.1%
41 | CCOc1ccccc1NC(=O)CCc1nnc2ccc(N3CCC(C)CC3)nn12 | 1.7% | 6.4% | . | -0.3%
42 | O=C(NCc1ccc2c(c1)OCO2)C1CCCN(S(=O)(=O)c2cccc3cccnc23)C1 (centres undefined) | 11.9% | 8.5% | -17.1 | 2.1%
43 | FCCCOc1ccc(/C=N/OCc2ccc(Cl)cc2)cc1 | 1.9% | -12.1% | 2.3 | 0.1%
44 | CCOc1ccc(-n2c(-c3ccco3)n[nH]c2=S)cc1 | 3.5% | -4.1% | 5.4 | -2.6%

Sorted by length of the SMILES (falling): part of the list above
# | SMILES | Rango release inh | miR-21 FLuc | GLA inh pH 4.5 | Rango-impB inh
25 | COc1ccc(NC(=O)CCNC(=O)c2ccc([N+](=O)[O-])cc2)cc1S(=O)(=O)N1CCOCC1 | -14.0% | . | . | 0.3%
31 | COc1ccc(NC(=O)/C(C#N)=C\c2ccc(OCc3ccc(C(=O)O)cc3)c(OC)c2)cc1 | 17.1% | -6.1% | 6.3 | 0.0%
42 | O=C(NCc1ccc2c(c1)OCO2)C1CCCN(S(=O)(=O)c2cccc3cccnc23)C1 (centres undefined) | 11.9% | 8.5% | -17.1 | 2.1%
27 | COc1cc(C(=O)NCc2nnc(SCC(=O)NCCc3ccccc3)o2)cc(OC)c1OC | -9.3% | 0.0% | . | 10.1%
32 | COc1ccc(C(CNC(=O)c2ccc(S(=O)(=O)N(C)C)cc2)N(C)C)cc1 (centres undefined) | -13.0% | -8.3% | 9.9 | -0.2%
39 | CCOc1ccc(CCNC(=O)c2oc3c(c2C)-c2[nH]ncc2CC3)cc1OCC | -16.6% | -11.4% | 4.5 | 0.1%
36 | COc1ccc(OC)c(C(Nc2ccccc2)P(=O)(OC(C)C)OC(C)C)c1 (centres undefined) | 21.3% | 1.4% | -9.2 | -1.2%
41 | CCOc1ccccc1NC(=O)CCc1nnc2ccc(N3CCC(C)CC3)nn12 | 1.7% | 6.4% | . | -0.3%
33 | CC1(C)Cc2c(sc(NC(=O)c3ccco3)c2C#N)C(C)(C)N1 | 15.3% | -7.4% | -10.1 | -0.6%
26 | O=C(O)CCCn1cc(NC(=O)COc2cccc(Cl)c2)cn1 | 0.6% | -3.6% | . | 0.4%
44 | CCOc1ccc(-n2c(-c3ccco3)n[nH]c2=S)cc1 | 3.5% | -4.1% | 5.4 | -2.6%
43 | FCCCOc1ccc(/C=N/OCc2ccc(Cl)cc2)cc1 | 1.9% | -12.1% | 2.3 | 0.1%
30 | CC(C)COC(=O)NC1c2ccccc2Oc2ccccc21 | -10.7% | 6.3% | 2.4 | 0.6%
34 | CCOC(=O)C1CCN(Cc2c(F)cccc2Cl)CC1 | -15.1% | -5.0% | -14.1 | 12.7%
35 | O=C(O)c1c(Cl)cccc1Cl | 2.3% | . | . | -1.0%

An excerpt; rates above refer to the full screens.
